PKD1 inh: inhibitors of human PKD1 kinase, biochemical, fluorescence polarization. Serine/threonine-protein kinase D1 (Homo sapiens), Q15139. PKD1 kinase fluorescence polarization assay. inhibition, %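 (about 10 µM by stock and volumes)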. 200,000 tested, 0.056% active. AID 797, 2007;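 active = inhibition of 50% or more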;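 also: controls were vehicle for no effect and a reference inhibitor for full effect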
Target sequence (Q15139 whole entry, looked up): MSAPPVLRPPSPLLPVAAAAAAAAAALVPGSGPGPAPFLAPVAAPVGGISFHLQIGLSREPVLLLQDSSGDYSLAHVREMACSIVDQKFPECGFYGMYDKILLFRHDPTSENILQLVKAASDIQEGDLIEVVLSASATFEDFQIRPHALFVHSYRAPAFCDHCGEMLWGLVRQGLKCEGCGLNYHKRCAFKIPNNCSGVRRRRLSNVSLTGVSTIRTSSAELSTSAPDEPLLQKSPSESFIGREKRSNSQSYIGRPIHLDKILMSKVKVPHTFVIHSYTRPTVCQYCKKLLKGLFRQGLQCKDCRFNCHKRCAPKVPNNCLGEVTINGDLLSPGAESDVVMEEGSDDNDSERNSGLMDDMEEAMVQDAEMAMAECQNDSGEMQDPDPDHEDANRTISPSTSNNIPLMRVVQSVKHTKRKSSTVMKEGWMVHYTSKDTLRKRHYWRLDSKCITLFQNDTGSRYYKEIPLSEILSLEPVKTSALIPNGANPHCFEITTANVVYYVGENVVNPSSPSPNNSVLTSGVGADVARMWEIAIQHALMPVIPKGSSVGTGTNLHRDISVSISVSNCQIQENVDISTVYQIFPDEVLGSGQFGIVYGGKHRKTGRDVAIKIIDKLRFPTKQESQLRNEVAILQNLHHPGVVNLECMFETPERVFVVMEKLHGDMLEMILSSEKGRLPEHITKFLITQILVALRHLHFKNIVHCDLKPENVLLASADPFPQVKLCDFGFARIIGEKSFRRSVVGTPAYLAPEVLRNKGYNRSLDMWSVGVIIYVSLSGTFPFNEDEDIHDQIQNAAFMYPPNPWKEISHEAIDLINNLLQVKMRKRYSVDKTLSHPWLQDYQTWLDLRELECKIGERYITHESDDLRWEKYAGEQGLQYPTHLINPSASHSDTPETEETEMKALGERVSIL
Insulin prom inh: inhibitors of insulin promoter-driven GFP, primary screen, imaging, TRM-6 cells (human fetal islet line), eGFP reporter, cell count; inhibition, % at 2 µM; 130,000 tested, 0.9% active; reporter expression induced with tamoxifen;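 active = inhibition above the mean plus 3 SD, with well images judged a real hit on visual review, cut at about 60% in these data, passing the limit was not always enough; inconclusive = inhibition over the cutoff but images rejected on review; inactive = inhibition not above the cutoff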
RGS16-Gao: modulators of RGS16 binding to Galphao, primary screen, biochemical, human proteins, multiplexed bead flow cytometry | bead-based flow cytometry RGS16-Galphao binding, fluorescence; actives lie on both sides | binding response (% of control), % at 10 µM | Regulator of G-protein signaling 16 (Homo sapiens) + Guanine nucleotide-binding protein … | 220,000 tested, 0.38% active;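 active = below 25% or above 175%, edge rows of some plates excepted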;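 also: Galphao activated by GDP with aluminum fluoride before binding; 100% = wells without compound and 0% = beads without RGS; some results beyond the cut were filed as inactive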
GALR2 ag: GALR2 receptor agonists, primary screen, cell-based | 140,000 tested, 0.48% active | GALR2-expressing cells, agonist activation read-out | activation, %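 (tested at 5 µM)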 | Galanin receptor type 2 (Homo sapiens), O43603;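 active = above mean plus 3 SD of all compounds, about 5% in these data, not always enough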;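 also: 0% = vehicle buffer wells and 100% = reference agonist at full effect; tested in CHO reporter cells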
HSV replic up: enhancers of HSV replication in host cells, fold increase, host cell viability; HSV replication augmentation in cells; maximum fold increase; AID 1956, 2009; 220,000 tested, 0.005% active;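 active = peak rise of 1.5-fold or more in the series; inconclusive = self-fluorescent or not available for retest; tested in PC3 cells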;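 also: first round at 10 µM; read as green reporter fluorescence; hits show the peak of a series up to 25 µM; 1 = signal of infected wells without compound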
Insulin prom inh cell count: also measured in Insulin prom inh; calls as there; normalized cell count, %; measured here: cell count, toxicity; reference of the scale not given here;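 cells exposed to compound for 48 h; stained nuclei by imaging scaled within each plate; lower means fewer cells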
HSV replic up primary fold: recorded beside HSV replic up, whose call it bears; fold increase; compound at 10 µM; measured here: primary screen fold increase 10 uM; tested in PC3 cells;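 GFP signal in the first replicate; 1 = infected wells without compound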
Numbers without * were called inactive; i = inactive; u = inconclusive; x = not tested or not shown.

SMILES	PKD1 inh	Insulin prom inh	Insulin prom inh cell count	RGS16-Gao	GALR2 ag	HSV replic up	HSV replic up primary fold
CCN(CC)S(=O)(=O)c1ccc(/C=C/C(=O)Nc2ccc(N3CCOCC3)cc2)cc1	x	x	x	100	x	i	0.8
COCCSc1nnc(NC(=O)C2CC(=O)N(c3ccc(Cl)cc3)C2)s1 (centres undefined)	11	31	111	100	x	i	1
Brc1ccc(/C=N/Nc2nncc(-c3ccccc3)n2)o1	4	57	54	105	x	i	0.76
Cc1cccc(C)c1NC(=O)C1(N(Cc2ccco2)C(=O)CC2NC(=O)NC2=O)CCCC1 (centres undefined)	-8	-16	94	104	0.1	i	0.81
Cc1ccc(-c2noc(CCC(=O)NCCCN3CCN(c4ccc(F)cc4)CC3)n2)cc1	-7	-8	100	99	-1.4	i	0.82
O=C(CN1CCN(Cc2ccccc2)CC1)N/N=C/c1c[nH]c2ccccc12	-3	-59	122	108	-2.1	i	0.84
COc1ccc(C(=O)/C=C/NCc2ccc(C)cc2)cc1	-3	-4	69	x	-1.3	i	1
COc1ccc(N=C2SC(CC(=O)Nc3cccc(Cl)c3)C(=O)N2Cc2ccco2)cc1 (centres undefined)	-6	-81	104	47	1.5	i	0.89
CCOC(=O)/C=C/C(=O)OCC(=O)Nc1ccc(C)cc1	10	56	76	109	x	i	1
O=C(O)/C(=C\c1ccc(-c2ccc(F)cc2)o1)c1ccccc1	-5	17	116	98	x	i	0.76
O=C(c1oc2ccccc2c1CSCc1ccccc1)N1CCN(c2ncccn2)CC1	4	0	138	96	-0.4	i	1.1
CCOC(=O)/C=C/C(=O)Nc1ccc(S(=O)(=O)N2CCCCCC2)cc1	4	0	98	54	x	i	0.63
O=C(Cn1c(SCC(=O)N2CCc3ccccc3C2)nc2ccccc21)NC1CCCC1	-9	-31	86	101	-0.9	i	0.86
CCn1c2c(c3cc(Cl)ccc31)CCCC2=O	2	x	x	104	0.0	i	0.84
Cc1cccc(C)c1OCC(=O)Nc1cccc(-c2nnc(-c3ccccc3)o2)c1	-5	x	x	102	0.8	i	0.8
COCCCN1C(=O)C(=O)/C(=C(/O)c2ccc(C)cc2)C1/C=C/c1ccccc1 (centres undefined)	1	x	x	99	x	i	0.7
c1ccc(-c2ccc(OCCCn3cncn3)cc2)cc1	-2	-40	134	134	-3.1	i	0.98
Cc1cc(N2CCN(c3ccccc3)CC2)nc(NCc2ccccc2)n1	4	7	131	94	-1.7	i	0.81
CCN1CCN(CCNC(=O)c2ccc(/C=C3/Sc4ccccc4N(Cc4ccccc4C)C3=O)cc2)CC1	5	-29	138	97	x	i	0.67
COc1cccc(C2=NO[C@@H]3C(=O)N(Cc4ccccc4)C(=O)[C@H]23)c1OC	22	20	106	94	-3.1	i	0.96
CCOC(=O)c1sc2ncn(/N=C/c3cccnc3)c(=O)c2c1C	-4	-53	93	115	0.8	i	1
Cc1cc(Nc2ccccc2)n(-c2ccc(C(=O)O)cc2)n1	-6	x	x	100	x	i	0.93
COC(=O)C(O)(CC(=O)Nc1ccc(OC(F)(F)F)cc1)C(F)(F)F (centres undefined)	-8	-370	97	110	-0.6	i	1
CCCCS(=O)(=O)Nc1ccc(C)cn1	2	24	91	88	-0.1	i	1
COC(=O)C1(C)CN(S(=O)(=O)c2ccc(C)cc2)c2cc(OC)ccc2C1=O (centres undefined)	0	x	x	101	0.3	i	0.94

(cont.)
SMILES	PKD1 inh	Insulin prom inh	Insulin prom inh cell count	RGS16-Gao	GALR2 ag	HSV replic up	HSV replic up primary fold
CCCCCc1ccc(-c2ccc(C(=O)O)cc2)nc1	-7	-356	56	144	0.7	i	0.9
CC1CCCC(NC(=O)CSc2nnnn2C)C1C (centres undefined)	-2	x	x	102	-2.9	i	0.93
CCSc1nnc(NC(=O)CSc2ncccn2)s1	6	-73	38	82	-0.4	i	0.85
COCCN(C(=O)CN1CCc2ccccc2C1)c1c(N)n(Cc2ccccc2)c(=O)[nH]c1=O	-3	x	x	108	0.6	i	0.96
CC(NC(=O)C1CCC1)c1ccccc1 (centres undefined)	-2	41	94	99	0.0	i	0.98
Cc1ccc(C(=O)NNC(=O)/C=C\C(=O)O)cc1	x	x	x	103	x	i	1
O=C(NCc1ccco1)C(c1ccco1)N(C(=O)Cn1nnc2ccccc21)c1ccc2c(c1)CCC2 (centres undefined)	-4	-52	173	x	-1.3	i	0.94
CCc1ccc(S(=O)(=O)NCc2cn3c(C)csc3n2)s1	-15	x	x	103	-3.5	i	1
Cc1cc(=O)[nH]c(SCC(=O)Nc2ccc(S(N)(=O)=O)cc2)n1	-10	-7	75	97	x	i	1.1
O=C(c1ccc(F)cc1)N1CCN(C2CC3CCC2C3)CC1 (centres undefined)	-5	x	x	111	-1.6	i	1.1
CCc1ccc(CN2C(=O)c3ccccc3C2C(=O)NCC2CCCO2)cc1 (centres undefined)	2	x	x	105	x	i	0.93
CCOC(=O)c1sc(Nc2ccccc2Cl)nc1C	x	x	x	94	x	i	0.91
COc1cc(CNCc2ccccn2)ccc1OCC(N)=O	1	x	x	97	-1.7	i	0.96
CCn1nc(C(C)C(=O)O)c2ccccc2c1=O (centres undefined)	-10	-22	88	105	x	i	1
Cc1nonc1OCC(C)(COc1nonc1C)NC(=O)c1ccccc1	-8	-93	59	107	-3.1	i	0.95
O=C(COC(=O)CNC(=O)c1ccc(Cl)cc1)Nc1ncc(C(F)(F)F)cc1Cl	9	x	x	100	-1.0	i	1.2
CC(OC(=O)CCC(=O)c1cccs1)C(=O)Nc1ccc(Cl)cn1 (centres undefined)	-5	x	x	96	-1.1	i	1.1
Cc1ccc(Nc2ncccc2C(N)=O)cc1	5	12	135	101	-1.4	i	0.88
CCOc1ncccc1C(=O)OCC(=O)Nc1ccc(C)c(S(=O)(=O)N2CCOCC2)c1	-3	x	x	100	-1.0	i	1.1
COc1ccc(NC(=O)c2cccnc2N2CCCC2)cc1	1	41	121	110	0.2	i	1
Cc1nc2ccc(NC(=O)Cc3ccccc3F)cc2s1	-6	x	x	102	x	i	0.93
O=C(COc1ccccc1N1C(=O)c2ccccc2C1=O)c1ccc(Cl)cc1	2	-43	104	102	-3.6	i	0.94
COCCCNC(=S)NNC(=O)c1ccoc1C	14	6	83	77	-0.8	i	1.1
Brc1ccc(-c2cn3c(n2)CCc2ccc4cccnc4c2-3)cc1	-7	-8	39	104	-1.6	i	1
CC(C(=O)N1CCOCC1)N1c2cccc3cccc(c23)S1(=O)=O (centres undefined)	1	-18	166	99	-0.8	i	1

Additional results
SMILES	PKD1 inh	Insulin prom inh	Insulin prom inh cell count	RGS16-Gao	GALR2 ag	HSV replic up	HSV replic up primary fold
CN(C)c1cc2c(c(N(C)C)c1)C(=O)c1ccccc1C2=O	-2	x	x	117	-1.8	i	0.71
CC(=O)N1N=C2c3ccccc3CCC2C1c1cccs1 (centres undefined)	x	x	x	96	x	i	1.1
C/C(CC(=O)Nc1ccc(Cl)c(C(F)(F)F)c1)=N\NC(=O)c1ccccc1O	-2	-59	89	128	-0.2	i	0.68
COc1ccc(NC(=O)c2[nH]c(C)c(C(C)=O)c2C)cc1S(=O)(=O)N1CCOCC1	10	-10	103	101	-0.6	i	0.95
Cc1nc2ccccc2cc1C(=O)N/N=C/c1cccs1	-3	-12	69	25	-0.3	i	0.91
Cc1ccccc1NC(=O)CSc1nc2ccccc2o1	-8	27	134	-179	-1.9	i	1.1
CC(=NCC1CCNCC1)C1=C(O)CC(C)(C)CC1=O	0	x	x	106	-2.5	i	1.1
NS(=O)(=O)c1ccc(Nc2ccc([N+](=O)[O-])c3nonc23)cc1	x	x	x	101	x	u	x
CC(NC(=O)CSc1ccccc1C(=O)O)C1CC2CCC1C2 (centres undefined)	-10	x	x	100	x	i	1.1
O=C(Cn1nc(Cc2ccncc2)c2ccccc2c1=O)N1CCc2ccccc2C1	0	x	x	99	-2.7	x	x
O=C(CSc1nnc(-c2ccc(F)cc2)c2ccccc12)Nc1ccccc1Cl	1	x	x	105	0.4	i	1
COc1ccccc1/C=C(/C#N)C(=O)O	x	x	x	101	x	i	1
CC(C)NC(=O)CSc1nnc(COc2ccccc2Cl)o1	-5	10	112	97	-2.5	i	1.1
O=C(Cn1ncc2ccccc21)N1CCN(c2cccc(C(F)(F)F)c2)CC1	0	-18	226	103	1.4	i	0.76
O=C(CC(c1ccccc1)(c1ccccc1)c1ccccc1)N[C@@H](Cc1ccccc1)C(=O)O	0	x	x	93	x	i	1
Cc1cc(C)cc(N(C(C)C(=O)N2CCOCC2)S(C)(=O)=O)c1 (centres undefined)	-7	-55	117	107	x	i	0.98
O=C(N/N=C\c1ccccn1)C1c2ccccc2Oc2ccccc21	-2	x	x	101	x	i	0.88
CC(C)CCNC(=O)NC(=O)COc1c(F)c(F)cc(F)c1F	3	5	141	102	0.8	i	0.88
OCCNCCCOc1ccc(Cl)cc1Br	-15	-37	137	112	-1.3	i	0.71
O=C1C2C(C(=O)N1c1ccccc1)N1CCCN1C2c1ccccc1 (centres undefined)	1	x	x	99	x	i	0.98
O=C1OC(c2ccc(O)cc2)(c2ccc(O)cc2)c2ccccc21	-7	24	115	53	0.0	i	0.82
COc1ccc(OC)c(C2CC(=O)Nc3c2c(=O)[nH]c2ncnn32)c1 (centres undefined)	0	x	x	112	x	i	0.89
CC(CCc1ccccc1)NC(=O)CN1CCc2ccccc2C1 (centres undefined)	-3	x	x	102	x	i	1.1
COc1ccc(C2C(C(C)=O)=C(O)C(=O)N2CCc2ccccc2)c(OC)c1 (centres undefined)	-7	10	55	93	-0.4	i	0.79
COc1ccc(/C=C(\NC(=O)c2cccs2)C(=O)Nc2cccc3ccccc23)cc1OC	1	7	74	31	-0.2	i	0.97

Reprinted at random: six compounds from above.
SMILES	PKD1 inh	Insulin prom inh	Insulin prom inh cell count	RGS16-Gao	GALR2 ag	HSV replic up	HSV replic up primary fold
COc1ccc(NC(=O)c2[nH]c(C)c(C(C)=O)c2C)cc1S(=O)(=O)N1CCOCC1	10	-10	103	101	-0.6	i	0.95
COc1ccc(C2C(C(C)=O)=C(O)C(=O)N2CCc2ccccc2)c(OC)c1 (centres undefined)	-7	10	55	93	-0.4	i	0.79
CN(C)c1cc2c(c(N(C)C)c1)C(=O)c1ccccc1C2=O	-2	x	x	117	-1.8	i	0.71
CC(C)CCNC(=O)NC(=O)COc1c(F)c(F)cc(F)c1F	3	5	141	102	0.8	i	0.88
CC(CCc1ccccc1)NC(=O)CN1CCc2ccccc2C1 (centres undefined)	-3	x	x	102	x	i	1.1
O=C(CC(c1ccccc1)(c1ccccc1)c1ccccc1)N[C@@H](Cc1ccccc1)C(=O)O	0	x	x	93	x	i	1

The listing continues:
SMILES	PKD1 inh	Insulin prom inh	Insulin prom inh cell count	RGS16-Gao	GALR2 ag	HSV replic up	HSV replic up primary fold
Cc1cc(NS(=O)(=O)c2ccc(NC(=O)CCCOc3ccc(Cl)cc3)cc2)no1	-2	-127	135	99	-0.7	i	1.1
CSc1nc(SCC(=O)O)c2c3c(sc2n1)COC(C)(C)C3	x	x	x	100	x	i	0.94
O=C(O)CC/C(=C\c1ccc(N2CCOCC2)c([N+](=O)[O-])c1)c1nc2ccccc2s1	-7	x	x	101	x	i	1
CCOC(=O)c1sc(=S)sc1SCc1cccc(C(F)(F)F)c1	-8	-24	121	104	-2.0	i	0.85
Fc1cccc2sc(Nc3nc4cc5c(cc4s3)OCO5)nc12	-4	-40	88	105	4.2	i	0.84
Cn1c(-c2ccc(F)cc2)cnc1NCc1ccc(F)cc1	14	0	44	107	-1.6	i	1

Limited to Insulin prom inh cell count, GALR2 ag and PKD1 inh, for some of the entries so far:
SMILES	Insulin prom inh cell count	GALR2 ag	PKD1 inh
O=C(O)CC/C(=C\c1ccc(N2CCOCC2)c([N+](=O)[O-])c1)c1nc2ccccc2s1	x	x	-7
CCOC(=O)c1sc(=S)sc1SCc1cccc(C(F)(F)F)c1	121	-2.0	-8
Fc1cccc2sc(Nc3nc4cc5c(cc4s3)OCO5)nc12	88	4.2	-4
Cn1c(-c2ccc(F)cc2)cnc1NCc1ccc(F)cc1	44	-1.6	14

Screens deposited in PubChem by several laboratories.
